RecA intein inh – Mtb RecA intein splicing inhibitors, primary screen, biochemical, fluorescence, HTS | Protein RecA (Mycobacterium tuberculosis (strain ATCC 25618 / H37Rv)), P9WHJ3 | cell-free RecA intein splicing | inhibition, %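 (about 9 µM by stock and volumes)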 | 0.75% of 290,000 active | AID 2221, 2009; in the data active = inhibition above about 30%; inconclusive = no clear call, values can overlap the other calls;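 also: 0% = vehicle wells and 100% = reference inhibitor control wells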
Target sequence (P9WHJ3 whole entry, looked up): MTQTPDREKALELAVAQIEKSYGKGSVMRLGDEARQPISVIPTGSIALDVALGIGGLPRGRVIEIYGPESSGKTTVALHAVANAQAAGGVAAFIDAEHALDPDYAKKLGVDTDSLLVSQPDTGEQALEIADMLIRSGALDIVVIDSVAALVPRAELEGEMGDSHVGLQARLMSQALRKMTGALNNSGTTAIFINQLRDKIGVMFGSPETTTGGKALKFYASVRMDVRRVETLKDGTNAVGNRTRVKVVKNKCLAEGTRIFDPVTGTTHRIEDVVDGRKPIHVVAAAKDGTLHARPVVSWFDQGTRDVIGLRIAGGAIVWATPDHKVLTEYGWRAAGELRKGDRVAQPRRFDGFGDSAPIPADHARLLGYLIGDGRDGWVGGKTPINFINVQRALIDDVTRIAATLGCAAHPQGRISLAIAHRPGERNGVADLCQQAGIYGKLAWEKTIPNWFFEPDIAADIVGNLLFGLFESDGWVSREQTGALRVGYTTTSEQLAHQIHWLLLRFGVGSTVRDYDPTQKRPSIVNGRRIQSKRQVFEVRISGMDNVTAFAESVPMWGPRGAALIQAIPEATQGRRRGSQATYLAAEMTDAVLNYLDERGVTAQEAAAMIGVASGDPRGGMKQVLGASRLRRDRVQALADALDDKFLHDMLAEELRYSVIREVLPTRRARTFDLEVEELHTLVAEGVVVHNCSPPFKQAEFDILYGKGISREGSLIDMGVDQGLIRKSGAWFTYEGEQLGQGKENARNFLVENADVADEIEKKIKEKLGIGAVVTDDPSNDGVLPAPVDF
YopH PTP inh – YopH tyrosine phosphatase inhibitors, primary screen, biochemical, fluorescence Ex485/Em525. inhibition, %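 (about 10 µM by stock and volumes)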. YopH tyrosine phosphatase [Yersinia enterocolitica]. 0.16% of 140,000 active. AID 898, 2007;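 active = inhibition of 50% or more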;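 also: controls were vehicle for no effect and minimum signal wells for full effect; inactives centre near -20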
Arbovirus anti – antivirals against arbovirus infection, primary screen, cell-based, full library, 10K replicate subset; arbovirus infection cell-based antiviral screen; inhibition, % at 10 µM; 0.37% of 200,000 active; AID 1251, 2008;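 active = inhibition from about 30%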;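 also: bluetongue infection of BSR cells; cell survival read as ATP light after 72 h; 0% = infected wells without compound and 100% = uninfected wells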
Mtb H37Rv – M. tuberculosis H37Rv growth inhibitors, H37Rv strain (AID 1626); inhibition, % at 10 µM; hits with a dose series show IC50 in µM; M. tuberculosis H37Rv growth inhibition; higher % means a stronger effect; 0.95% of 220,000 active;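 active = confirmed in a dose series; inconclusive = inhibition above 80% but not taken into the dose series; inactive = below 80% or under 30% at every dose of the series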;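 also: bacteria incubated seven days before Alamar blue readout; 0% = bacteria only wells and 100% = bacteria with antibiotic wells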
Mtb betalactam – beta-lactam sensitization of Mtb H37Rv, H37Rv; inhibition, % at 25 µM; AID 434955, 2010; 0.27% of 330,000 active; M. tuberculosis H37Rv growth with meropenem, percent inhibition; hits of this screen are not shown here;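 active = about 74% or more and at least 40 points above the plate without the antibiotic, then above 30% in a dose series; inconclusive = first-round hits that could not be retested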;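 also: growth measured after seven days incubation then overnight dye step; 0% = bacteria only wells and 100% = bacteria with antibiotic; twin plates without the antibiotic show which effects depend on it; some results filed as inactive read as strong as hits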
Arbovirus anti repeat – further read-out of Arbovirus anti, marked with its call; inhibition, %; measured here: 10K subset replicate screen; many hits read low in the repeat;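 first of two repeat runs on a subset; 0% = infected and 100% = uninfected wells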
Numbers without * were called inactive; u = inconclusive; x = not tested or not shown. These rows are one share of the data. The share of hits here may be higher or lower than overall.

SMILES | RecA intein inh | YopH PTP inh | Arbovirus anti | Mtb H37Rv | Mtb betalactam | others
CN(C(=O)CSc1nnc(NC2CCCCC2)s1)C1CCS(=O)(=O)C1 (centres undefined) | -3.0 | -52 | 1 | 1% | -9
O=C(c1cc2cc([N+](=O)[O-])ccc2s1)N1CCCCC1 | 1.0 | x | -4 | -5% | 3
O=C(CSc1ncc(-c2ccc(F)cc2)n1Cc1ccco1)Nc1nccs1 | 3.9 | -17 | -14 | -10% | -5
Cc1cc(Cl)cc(C)c1OCCCCN1CCOCC1 | -1.9 | -9 | -4 | -3% | -7
CCN(CCCNC(=O)CNC(=O)Cn1cnc2ccccc2c1=O)c1cccc(C)c1 | -8.8 | -3 | 2 | 3% | -5
CCN(CC)CCCNC(=O)c1cc(-c2ccc(Cl)c(Cl)c2)on1 | -0.8 | -26 | -41 | 0% | 4
Fc1ccc(C2=CC(c3ccco3)n3ncnc3N2)cc1 (centres undefined) | -126 | -12 | 17 | 3% | -4
CCN(CC)c1ccc(NC(=O)CN2CCN(c3ccc(F)cc3)CC2)cc1 | -0.4 | -23 | 6 | 0% | 1
CC(C)OC(=O)CSc1ncnc2c1cnn2-c1ccccc1 | 10.0 | -52 | 0 | 8.7µM* | 99
CC(=O)Nc1ccc2c(c1)CCCC2 | 1.0 | x | x | 1% | -6
O=C(COC(=O)C1CC2CCCC(C1)C2=O)Nc1nc(-c2ccc(F)c(F)c2)cs1 (centres undefined) | -0.6 | x | x | x | -1
COC(=O)c1sc(S(=O)(=O)NCC(=O)O)c(C(=O)OC)c1C | 2.9 | x | 17 | -2% | -18
Cc1cccc(C(=O)Nc2sc3c(c2C#N)CCCCC3)c1 | 3.7 | 15 | -3 | 10% | 4
CCc1cc(=O)oc2c3c(cc(OCC(=O)Nc4cccnc4)c12)OC(C)(C)CC3 | 8.7 | x | x | x | 3
CCCCCOC(=O)C1=C(C)NC(=O)NC1c1ccccc1OCC (centres undefined) | 3.6 | 5 | -22 | -3% | -3 | Arbovirus anti repeat=-20
CCN(CC)S(=O)(=O)c1cccc(C(=O)N[C@H](C(=O)NNC(=O)c2ccccc2)C(C)C)c1 | -4.5 | x | x | 14% | -7
FC(F)(F)c1ccc(-c2n[nH]c(=S)o2)nc1 | 0.6 | x | x | 3% | -6
Cc1oc(-c2ccccc2F)nc1CS(=O)(=O)CC(=O)NC1CCCC(C)C1C (centres undefined) | -1.1 | x | x | x | 9
O=C(NCCCNC(=O)c1ccc(Cl)cc1Cl)c1ccccn1 | -3.3 | x | x | x | -7
CC(C)NC(=O)NC(=O)COC(=O)Cc1ccsc1 | -0.4 | 24 | 11 | -2% | -1

Arranged by formula weight (lowest first): 6 of the compounds above.
SMILES | RecA intein inh | YopH PTP inh | Arbovirus anti | Mtb H37Rv | Mtb betalactam | others
Fc1ccc(C2=CC(c3ccco3)n3ncnc3N2)cc1 (centres undefined) | -126 | -12 | 17 | 3% | -4
O=C(NCCCNC(=O)c1ccc(Cl)cc1Cl)c1ccccn1 | -3.3 | x | x | x | -7
CN(C(=O)CSc1nnc(NC2CCCCC2)s1)C1CCS(=O)(=O)C1 (centres undefined) | -3.0 | -52 | 1 | 1% | -9
CCc1cc(=O)oc2c3c(cc(OCC(=O)Nc4cccnc4)c12)OC(C)(C)CC3 | 8.7 | x | x | x | 3
O=C(CSc1ncc(-c2ccc(F)cc2)n1Cc1ccco1)Nc1nccs1 | 3.9 | -17 | -14 | -10% | -5
CCN(CCCNC(=O)CNC(=O)Cn1cnc2ccccc2c1=O)c1cccc(C)c1 | -8.8 | -3 | 2 | 3% | -5

The listing continues.
SMILES | RecA intein inh | YopH PTP inh | Arbovirus anti | Mtb H37Rv | Mtb betalactam | others
CCOC(=O)C1CCN(C(=O)CSc2ccccc2)CC1 | -0.8 | -1 | 3 | -10% | 6
CC1CCCC/C1=N\NC(=S)Nc1cccnc1 (centres undefined) | 4.9 | x | 7 | -3% | -4
CC(C)n1cc(CN2CCC(n3nccc3NC(=O)CCCc3ccccc3)CC2)cn1 | -0.1 | x | x | x | 0
Cc1ccc(-c2cn3cccc(C)c3n2)cc1 | -0.7 | x | 3 | 8% | x
Cc1cccc(N2C(=O)CC(N3CCN(Cc4ccc(Cl)cc4)CC3)C2=O)c1 (centres undefined) | -1.9 | -26 | -3 | 6% | -3
Cc1ccccc1NC(=S)N(CCN(C)C)C(C)c1ccccn1 (centres undefined) | -2.2 | -14 | -1 | -8% | 3
CCc1c(C(C)S(=O)(=O)c2ccccc2)[nH]c(=O)n1CC (centres undefined) | -0.6 | x | 1 | 0% | -1
CC1CCN(S(=O)(=O)c2ccc(S(=O)(=O)N3CCCC3)cc2)CC1 | 2.5 | x | x | x | -4
COc1ccc(O)c(-c2cc(-c3ccc(F)cc3)n[nH]2)c1 | 4.5 | x | x | x | 2
COc1ccc(CC(=S)N2CCOCC2)cc1OC | x | 1 | 10 | -10% | -3
O=P(c1ccc2c(c1)OCCO2)(N1CCOCC1)N1CCOCC1 | -0.6 | -4 | 4 | 10% | -12
CC1CC(OC(=O)c2ccccc2)(c2ccccc2)C(C)CN1C (centres undefined) | 2.3 | x | x | -11% | -9
CN(CC(=O)NCc1ccccn1)S(=O)(=O)c1ccc(Cl)cc1 | -0.2 | -19 | 0 | -3% | -8
O=C1COc2ccc(C(=O)COC(=O)c3sc4ccccc4c3Cl)cc2N1 | -2.1 | -15 | -2 | -2% | 10
COC/C=C/C1=CC2=CC(=O)C(C)(OC(=O)c3cnc4ccccc4n3)C(=O)C2=CN1C1CCCCC1 (centres undefined) | 18 | x | x | x | 3
COc1ccc(/C=N\NC(=O)c2cccc([N+](=O)[O-])c2)cc1Cn1cc([N+](=O)[O-])cn1 | 3.2 | x | -6 | 3% | 2
CC1=C(C)C(=O)C(CCCCC#CCCCC#CCO)=C(C)C1=O | 19 | 65* | -11 | u | 98
CC(C)N1CCC(N2CCN(C/C=C/c3ccc(F)cc3)CC2CCO)CC1 (centres undefined) | -2.3 | x | -3 | 2% | 8
Cc1cc(N2C(=O)C3CC=CCC3C2=O)no1 (centres undefined) | 1.2 | -27 | -3 | -9% | -2
Cc1cc2cc(CN(CCCO)S(=O)(=O)c3cccc4nsnc34)c(=O)[nH]c2cc1C | 0.0 | -49 | 0 | -1% | -12
O=C(NCc1cccnc1)c1cccc2c1C(=O)N(C1CCCCC1)C2 | 2.0 | -25 | -4 | x | -9
CS(=O)(=O)/C(C#N)=C\c1cnc(S(=O)(=O)c2ccccc2)s1 | 0.9 | x | x | x | 6
Cc1ccc2oc(/N=C(\N)NC(=O)C(C)(C)C)nc2c1 | -0.4 | x | x | -1% | -9
O=S(=O)(NC1CCN(Cc2ccccc2)CC1)c1cccc(S(=O)(=O)N2CCOCC2)c1 | -1.0 | -21 | 4 | x | -4
COc1cccc(C=Nc2ccc(N3CCOCC3)cc2)c1O | -2.4 | x | x | x | 4
COCCNC(=O)c1cc2cc(Cl)cc(Cl)c2oc1=O | -0.5 | x | 3 | 3% | 8
O=C(C1CCN(c2ncnc3c2nc2n3CCCCC2)CC1)N1CCN(c2cccc(Cl)c2)CC1 | 8.0 | x | x | x | 100
C/C(=C\c1ccc(N(C)C)cc1)[N+](=O)[O-] | 1.8 | -37 | 11 | x | 85
COC(=O)c1ccc(CNC(=O)COC(=O)c2ccc(N(C)C)cc2)cc1 | -1.6 | x | -1 | -2% | 12
COc1ccc(CN2C(=O)c3cccnc3C2=O)cc1S(=O)(=O)N1CCCCC1C (centres undefined) | 0.1 | x | x | x | -1
O=C(CN(Cc1ccco1)C(=O)CNS(=O)(=O)c1ccccc1)NCc1ccccc1 | 0.6 | -29 | 1 | 0% | -13
Cc1c(NC(=S)NC(=O)c2cccc3ccccc23)cccc1C(=O)O | 0.2 | x | x | x | u
COc1cccc2oc3ccc(C#Cc4ccccn4)cc3c(=O)c12 | -6.6 | x | x | x | 72
Cc1ccc(-n2nc3c(=O)n(CCCC(=O)NCc4cccc(Cl)c4)nc(C)c3c2C)cc1 | 2.2 | x | x | x | 44
COc1ccccc1-n1c(SCC(=O)NC(C)(C)C)nc(O)cc1=O | -0.3 | -10 | 5 | -6% | 4
Cc1ccccc1-c1nc(CS(=O)(=O)CC(=O)NCCCN2CCOCC2)c(C)o1 | 0.2 | x | x | x | 0
O=C(NCCNc1ccc(Cl)cc1[N+](=O)[O-])c1cccnc1 | -1.2 | x | 3 | 9% | -3
CCOC(=O)c1nnc2cc(-c3ccccc3)nn2c1C | x | -40 | -6 | -3% | -4 | Arbovirus anti repeat=-2
COc1ccccc1N1CCN(S(=O)(=O)c2cc(C)sc2C)CC1 | 6.4 | -42 | 1 | 4% | 3
CCOC(=O)N1CCN(S(=O)(=O)c2cc(Br)cc3c2N(C(C)=O)C(C)C3)CC1 (centres undefined) | 1.0 | -36 | 9 | -20% | -1

Random excerpt: five compounds from above.
SMILES | RecA intein inh | YopH PTP inh | Arbovirus anti | Mtb H37Rv | Mtb betalactam | others
COC(=O)c1ccc(CNC(=O)COC(=O)c2ccc(N(C)C)cc2)cc1 | -1.6 | x | -1 | -2% | 12
COc1cccc2oc3ccc(C#Cc4ccccn4)cc3c(=O)c12 | -6.6 | x | x | x | 72
COCCNC(=O)c1cc2cc(Cl)cc(Cl)c2oc1=O | -0.5 | x | 3 | 3% | 8
C/C(=C\c1ccc(N(C)C)cc1)[N+](=O)[O-] | 1.8 | -37 | 11 | x | 85
Cc1ccc2oc(/N=C(\N)NC(=O)C(C)(C)C)nc2c1 | -0.4 | x | x | -1% | -9

(continued)
SMILES | RecA intein inh | YopH PTP inh | Arbovirus anti | Mtb H37Rv | Mtb betalactam | others
CC(C)c1ccc(N(CC(=O)NC2CCCC2)C(=O)CCC(=O)Nc2nccs2)cc1 | 0.3 | x | x | x | 0
COc1ccc(NC(=O)N2C[C@@H]3C[C@@H](C2)c2cccc(=O)n2C3)cc1 | 0.5 | x | x | x | 2
COc1nc(N(c2ccccc2)c2ccccc2)nc(-n2ccnc2)n1 | 4.3 | -52 | -7 | 26% | 27
C=CCn1c(SCC2=C(C(=O)OCC)C(C)NC(=O)N2)nnc1C1CCCCC1 (centres undefined) | 0.5 | -21 | 5 | -3% | -14
Cc1cc(C)c2c(n1)sc1c(=O)n(-c3ccccc3)c(=O)[nH]c12 | -3.1 | -10 | -2 | -3% | 6
Cc1ccccc1-n1ncc2c1CC(C)(C)CC2NC(=O)c1cn[nH]c1C (centres undefined) | 1.8 | x | x | x | -7
CC1=C(C(N)=O)C(c2ccco2)C(C(N)=O)=C(C)N1 | 0.6 | -29 | -1 | -11% | -1
Cc1ccc(-n2c(C)c([N+](=O)[O-])c3ccc(O)cc32)cc1 | 0.5 | x | x | -1% | -10
O=C(NC1CCN(C(=O)C2CCCCC2)CC1)c1ccccc1 | 1.0 | x | x | -5% | -7
Oc1ccccc1N=Cc1c(O)ccc2oc3c(c12)CCCC3 | -1.5 | x | x | 72% | 98
COc1ccc(OC)c(CCNC(=O)Cn2cccc2C(=O)c2ccccc2)c1 | 3.5 | x | x | x | 4
Cc1ccc(NC(=O)C2CCN(c3nc(C)cc(C)n3)CC2)cc1 | 0.9 | x | 2 | -1% | 3
CCC(=O)N1CCN(c2ccccc2NC(=O)COc2ccc(C(C)C)cc2)CC1 | 17 | x | x | x | 2
COC(=O)C1=C(C(=O)OC)[C@@H]2N(C)c3ccccc3[C@@]23C[C@@H](C(=O)OC)N(C(=O)CC(C)C)C3=N1 | 5.2 | x | x | -6% | -5
O=c1oc2ccccc2c(O)c1[C@H]1c2ccc(O)cc2Oc2c1c(=O)oc1ccccc21 | -4.8 | x | x | -6% | -6
N#Cc1nc(COc2ccc(Cl)cc2)oc1NCc1ccc2c(c1)OCO2 | 6.8 | 4 | -12 | 16% | 21
O=C(N/N=C\C=C\c1ccc([N+](=O)[O-])o1)c1cccs1 | -4.4 | x | x | x | 100

Bioassay records as filed in PubChem BioAssay.
